FGF22 binding – shifts melting point of recombinant human FGF22 | recombinant FGF22 thermal shift, SYPRO orange fluorescence; percent of sucrose octasulfate shift, DMSO zero | calls only at 9.99 µM | actives 1.5% (n = 340,000) | AID 651658;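 active means melting point raised past a set limit in the mean and every replicate; three in four hits are not shown here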
Target sequence (Q9HCT0 whole entry, looked up): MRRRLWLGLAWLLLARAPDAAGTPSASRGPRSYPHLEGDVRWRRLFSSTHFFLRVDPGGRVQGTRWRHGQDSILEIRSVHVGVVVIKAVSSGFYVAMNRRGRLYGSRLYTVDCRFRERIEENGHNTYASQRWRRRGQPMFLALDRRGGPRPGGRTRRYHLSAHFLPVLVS
MLL AF4-AF9 inh – MLL-AF4/AF9 protein interaction inhibition; P42568; AlphaScreen, biotin-AF4 peptide binding to FLAG-AF9; inhibition, % at 10 µM; actives 0.47% (n = 350,000); AID 651704;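 active means every replicate reaching a set inhibition limit, whatever the replicate mean, cut at about 25% in these data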;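 further: 0% = plate neutral control median and 100% = total signal loss; the record names both 10 and 1 µM as test concentration; the first replicate is given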
Target sequence (P42568 whole entry, looked up): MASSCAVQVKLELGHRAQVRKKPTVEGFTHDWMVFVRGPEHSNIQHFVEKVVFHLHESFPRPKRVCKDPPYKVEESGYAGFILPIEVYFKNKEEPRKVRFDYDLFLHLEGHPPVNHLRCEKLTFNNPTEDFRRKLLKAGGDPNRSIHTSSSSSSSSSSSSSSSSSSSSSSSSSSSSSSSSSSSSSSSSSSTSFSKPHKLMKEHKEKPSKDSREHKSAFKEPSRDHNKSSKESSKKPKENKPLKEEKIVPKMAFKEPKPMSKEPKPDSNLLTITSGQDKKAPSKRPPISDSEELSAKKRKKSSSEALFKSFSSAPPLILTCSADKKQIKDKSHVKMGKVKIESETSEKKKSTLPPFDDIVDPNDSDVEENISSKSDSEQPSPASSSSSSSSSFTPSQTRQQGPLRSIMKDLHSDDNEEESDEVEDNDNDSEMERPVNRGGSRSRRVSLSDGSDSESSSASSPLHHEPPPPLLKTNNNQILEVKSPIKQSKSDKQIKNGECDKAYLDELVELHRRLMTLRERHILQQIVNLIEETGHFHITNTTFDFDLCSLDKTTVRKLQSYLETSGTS
Ecoli rRNA inh – selective bacterial rRNA inhibition in E. coli; E. coli WT GFP vs humanized-ribosome RFP mutants, fluorescence, 24 h; stronger effect = lower value; DMSO median 0, no signal -100; GFP signal change (wild-type ribosome), % (no concentration beside the values); actives 1.6% (n = 350,000);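 active means significant combined selectivity score with lowered wild-type GFP, culture density cut under 30%, mutant RFP and density less affected; inactive means any of these conditions unmet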; further: one replicate is shown; some compounds called inactive have numbers as strong as hits
Ecoli rRNA inh OD600 – further read-out of Ecoli rRNA inh, marked with its call; OD600 change, %; measured here: OD600 growth;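 optical density of the mix in the first replicate; 0 = DMSO median and -100 = no signal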
Ecoli rRNA inh RFP – second read-out of Ecoli rRNA inh, no call of its own (marks repeat the call); RFP signal change, %; measured here: RFP humanized mutant strains;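 first replicate; 0 = DMSO median and -100 = no signal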
* hit, by the source's call; i = inactive. The list is partial; rates above refer to the full screens.

Ecoli rRNA inh OD600,FGF22 binding,Ecoli rRNA inh,MLL AF4-AF9 inh,Ecoli rRNA inh RFP,Structure
15,i,4,-3.4,-2.1,CC(=O)N(C)C[C@H]1Oc2ncc(C#C[C@H](C)O)cc2C(=O)N([C@H](C)CO)C[C@@H]1C
3,i,4,-2.2,-1.5,COc1ccc(NC(=O)N(C)C[C@@H]2Oc3ccc(NS(=O)(=O)c4cn(C)cn4)cc3C(=O)N([C@@H](C)CO)C[C@H]2C)cc1
-11,i,-2,-0.1,0.6,CO[C@H]1CN(C)C(=O)c2cc(NC(=O)C3CC3)ccc2OC[C@@H](C)N(Cc2ccncc2)C[C@@H]1C
-5,i,-3,-0.1,-0.4,COc1ccccc1C(=O)N1C[C@H]2[C@@H](c3ccccc31)[C@H](CO)N2C(=O)Cc1ccccc1
0,i,-3,-1.7,0.6,CC=Cc1ccc2n(c1=O)C[C@@H]1[C@@H](CO)[C@H](C(=O)N3CCCCC3)[C@H]2N1CC1CCCC1 (mixture of isomers)
5,i,0,-4.9,0.7,C[C@H](CO)N1C[C@H](C)[C@@H](CN(C)Cc2ccncc2)OCCCC[C@H](C)Oc2ccc(NS(=O)(=O)c3ccccc3)cc2C1=O
-5,i,1,-3.3,0.3,CC(C)NC(=O)N(C)C[C@H]1OCCCC[C@@H](C)Oc2ccc(NS(C)(=O)=O)cc2C(=O)N([C@H](C)CO)C[C@H]1C
-9,i,-1,3.2,0.1,COc1ccc(S(=O)(=O)Nc2ccc3c(c2)CC(=O)N([C@H](C)CO)C[C@H](C)[C@@H](CN(C)S(=O)(=O)c2c(C)noc2C)O3)cc1
-1,i,2,-4.5,2.2,C[C@@H]1CN([C@@H](C)CO)C(=O)c2cc(NC(=O)C3CC3)ccc2O[C@@H]1CN(C)S(=O)(=O)c1ccc(F)cc1
-3,i,0,-8.2,-1.9,CC(C)NC(=O)N(C)C[C@@H]1Oc2cc(C3=CCCC3)ccc2S(=O)(=O)N([C@H](C)CO)C[C@@H]1C
-5,i,-5,1.2,0.2,Cc1ccc(S(=O)(=O)N(C)C[C@H]2Oc3c(NS(C)(=O)=O)cccc3C(=O)N([C@@H](C)CO)C[C@@H]2C)cc1
-47,i,-5,-4.4,-7.3,Cc1cc(C=O)c(C)c2c1[nH]c1ccccc12
-3,i,-3,0.9,4.0,COc1ccc(C(=O)N(C)CCOc2ccc(Cl)cc2)cc1S(=O)(=O)N1CCCC1
-8,i,-2,-0.5,1.4,C[C@H]1CN([C@@H](C)CO)S(=O)(=O)c2ccc(C#CC3CC3)cc2O[C@@H]1CN(C)C(=O)c1cnccn1
-2,i,1,-3.6,-1.2,CC(C)NC(=O)N[C@@H]1C=C[C@H](CC(=O)NCCN2CCCC2)O[C@H]1CO
-11,i,-3,4.9,-1.8,Cc1noc(C)c1NC(=O)Nc1cccc2c1O[C@@H](CN(C)Cc1ccc(Oc3ccccc3)cc1)[C@@H](C)CN([C@H](C)CO)C2=O
3,i,2,-5.0,-1.2,Cc1noc(C)c1S(=O)(=O)Nc1ccc2c(c1)CC(=O)N([C@@H](C)CO)C[C@@H](C)[C@H](CN(C)C(=O)Nc1ccccc1)O2
-7,i,4,6.0,4.4,OC[C@H]1[C@H](c2ccc(-c3ccc(F)cc3)cc2)[C@H]2CN(Cc3cccnc3)CCCCN21
-12,i,-3,5.9,-0.5,COC(=O)C[C@H]1CC[C@H]2[C@H](COc3ccc(NC(=O)Nc4cccc(C)c4)cc3C(=O)N2C)O1
-5,i,5,-2.9,-2.4,CC(C)CNc1cccc2c1S(=O)(=O)N[C@@H](CC(C)C)CO2
-38,i,-3,6.2,14,CCc1cnc(N2[C@@H](C#N)[C@@H](c3ccc(C#CC(C)C)cc3)[C@@H]2CO)s1
10,i,11,-4.9,-0.2,CCOC(=O)NC1=NCC(C)(C)S1
2,i,0,-3.5,-0.2,Cc1noc(C)c1S(=O)(=O)Nc1ccc2c(c1)CC(=O)N([C@@H](C)CO)C[C@H](C)[C@@H](CN(C)S(=O)(=O)c1ccc(F)cc1)O2
1,i,0,5.7,-0.3,C[C@@H]1CN([C@@H](C)CO)C(=O)c2cccc(NC(=O)c3nc4ccccc4s3)c2O[C@@H]1CN(C)C(=O)Nc1ccc(F)cc1
2,i,-4,-1.2,-4.1,CCC(=O)N(C)C[C@H]1Oc2ncc(C#CCc3ccccc3)cc2C(=O)N([C@@H](C)CO)C[C@H]1C

Arranged by value in MLL AF4-AF9 inh (high to low): some entries from above
Ecoli rRNA inh OD600,FGF22 binding,Ecoli rRNA inh,MLL AF4-AF9 inh,Ecoli rRNA inh RFP,Structure
-5,i,-5,1.2,0.2,Cc1ccc(S(=O)(=O)N(C)C[C@H]2Oc3c(NS(C)(=O)=O)cccc3C(=O)N([C@@H](C)CO)C[C@@H]2C)cc1
-5,i,1,-3.3,0.3,CC(C)NC(=O)N(C)C[C@H]1OCCCC[C@@H](C)Oc2ccc(NS(C)(=O)=O)cc2C(=O)N([C@H](C)CO)C[C@H]1C
-3,i,0,-8.2,-1.9,CC(C)NC(=O)N(C)C[C@@H]1Oc2cc(C3=CCCC3)ccc2S(=O)(=O)N([C@H](C)CO)C[C@@H]1C

Next section.
Ecoli rRNA inh OD600,FGF22 binding,Ecoli rRNA inh,MLL AF4-AF9 inh,Ecoli rRNA inh RFP,Structure
10,i,1,2.0,-0.4,C[C@H](CO)N1C[C@H](C)[C@@H](CN(C)S(C)(=O)=O)Oc2ncc(C#CC3CCCC3)cc2C1=O
11,i,2,1.3,-3.1,O=C(CCN1CCCCC1)N[C@H]1CC[C@@H](CCn2cc(-c3ccc(F)cc3)nn2)O[C@@H]1CO
0,i,4,-2.7,1.3,C[C@@H]1CN([C@@H](C)CO)C(=O)c2cc(NS(C)(=O)=O)ccc2O[C@H]1CN(C)C(=O)NC1CCCCC1
9,i,0,-2.1,-2.0,C[C@H]1CN([C@@H](C)CO)C(=O)CCCn2cc(nn2)CO[C@H]1CN(C)C(=O)Nc1ccc2c(c1)OCCO2
1,i,5,-4.8,-1.1,Cc1ccccc1-c1cnc2c(c1)C(=O)N([C@H](C)CO)C[C@@H](C)[C@@H](CN(C)C(=O)c1ccncc1)O2
1,i,2,2.4,0.4,CCCN1[C@@H]2Cn3c(ccc(-c4ccccc4)c3=O)[C@H]1[C@@H](C(=O)NCCc1cn(C)cn1)[C@@H]2CO
-19,i,-7,-2.3,7.3,O=C(Cn1cc(COc2ccc(C(=O)c3ccccc3)cc2)nn1)c1ccc(O)cc1
5,i,-3,-0.6,0.5,CC(=O)N1CC2(C1)[C@H](c1ccc(-c3ccc(F)cc3)cc1)[C@@H](CO)N2CC1CC1
6,i,20,2.5,0.6,COC(=O)[C@]12C[C@H](CC(=O)NCC3CCCCC3)C(=O)N(Cc3ccccc3)C1=C[C@H](C(C)(C)C)O[C@@H]2C
-2,i,-2,-0.6,-1.9,CCC(=O)Nc1ccc2c(c1)OC[C@H](C)N(C(=O)C1CC1)C[C@H](C)[C@@H](OC)CN(C)C2=O
-14,i,-6,1.5,-1.2,COc1ccc(NC(=O)Nc2ccc3c(c2)C(=O)N([C@H](C)CO)C[C@@H](C)[C@H](CN(C)S(=O)(=O)c2ccccc2)O3)cc1
-8,i,-2,2.4,1.9,O=C(C[C@@H]1CC[C@H]2[C@@H](COC[C@H](O)CN2S(=O)(=O)c2ccccc2Cl)O1)NCc1ccccc1Cl
-8,i,7,4.5,-1.5,Cc1[nH]ncc1Nc1ccccc1C(C)C
0,i,2,-1.2,-1.6,C[C@@H]1CN([C@H](C)CO)C(=O)c2cccc(NC(=O)C3CCOCC3)c2O[C@@H]1CN(C)CC1CCCCC1
5,i,6,-0.3,0.4,C[C@H](CO)N1C[C@H](C)[C@@H](CN(C)C(=O)CN(C)C)Oc2cc(-c3cccnc3)ccc2S1(=O)=O
0,i,-4,-0.8,-2.8,C[C@H]1CN([C@@H](C)CO)S(=O)(=O)c2ccc(-c3cncnc3)cc2O[C@@H]1CN(C)Cc1cncnc1
5,i,2,-0.5,1.0,CCCC1NC(=O)c2cccnc2-n2c1nc1cc(F)c(F)cc1c2=O (centres undefined)
-7,i,-2,3.6,4.3,C[C@@H]1CCCCO[C@@H](CN(C)Cc2ccncc2)[C@@H](C)CN([C@@H](C)CO)C(=O)c2cc(NS(=O)(=O)c3ccc(Cl)cc3)ccc2O1
-20,i,-9,-0.9,-4.3,N#C[C@@H]1[C@H](c2ccccc2C2=CCCCC2)[C@H](CO)N1S(=O)(=O)c1ccccc1
-7,i,-5,0.7,4.1,COc1ccccc1C#Cc1ccc2c(c1)O[C@H](CN(C)Cc1ccncc1)[C@@H](C)CN([C@H](C)CO)S2(=O)=O
-6,i,0,3.9,0.0,COc1ccc(NC(=O)Nc2ccc3c(c2)C(=O)N([C@H](C)CO)C[C@H](C)[C@@H](CN(C)C)OCCCC[C@H](C)O3)cc1
-9,i,7,-1.2,-6.3,COc1ccc(-c2ccccc2[C@H]2[C@@H](CO)N(C(=O)C3CCCCC3)[C@H]2C#N)cc1
12,i,0,-2.5,-2.4,Cc1noc(C)c1NC(=O)N(C)C[C@H]1OCCCC[C@H](C)Oc2ccc(NC(=O)Cc3ccccc3)cc2C(=O)N([C@@H](C)CO)C[C@H]1C
11,i,0,-0.1,0.6,C[C@H]1CN([C@@H](C)CO)C(=O)Cc2cc(NS(=O)(=O)c3cn(C)cn3)ccc2O[C@@H]1CN(C)C(=O)Nc1cccc2ccccc12
0,i,4,-1.1,1.9,C[C@@H]1CCCCO[C@H](CN(C)CC2CCCCC2)[C@H](C)CN([C@@H](C)CO)C(=O)c2cc(NC(=O)C3CCCCC3)ccc2O1

Fetched by compound from above, 5 records:
Ecoli rRNA inh OD600,FGF22 binding,Ecoli rRNA inh,MLL AF4-AF9 inh,Ecoli rRNA inh RFP,Structure
0,i,4,-2.7,1.3,C[C@@H]1CN([C@@H](C)CO)C(=O)c2cc(NS(C)(=O)=O)ccc2O[C@H]1CN(C)C(=O)NC1CCCCC1
-7,i,-2,3.6,4.3,C[C@@H]1CCCCO[C@@H](CN(C)Cc2ccncc2)[C@@H](C)CN([C@@H](C)CO)C(=O)c2cc(NS(=O)(=O)c3ccc(Cl)cc3)ccc2O1
-7,i,-5,0.7,4.1,COc1ccccc1C#Cc1ccc2c(c1)O[C@H](CN(C)Cc1ccncc1)[C@@H](C)CN([C@H](C)CO)S2(=O)=O
12,i,0,-2.5,-2.4,Cc1noc(C)c1NC(=O)N(C)C[C@H]1OCCCC[C@H](C)Oc2ccc(NC(=O)Cc3ccccc3)cc2C(=O)N([C@@H](C)CO)C[C@H]1C
-6,i,0,3.9,0.0,COc1ccc(NC(=O)Nc2ccc3c(c2)C(=O)N([C@H](C)CO)C[C@H](C)[C@@H](CN(C)C)OCCCC[C@H](C)O3)cc1

Later entries
Ecoli rRNA inh OD600,FGF22 binding,Ecoli rRNA inh,MLL AF4-AF9 inh,Ecoli rRNA inh RFP,Structure
10,i,7,-3.6,1.1,CNC(=O)C[C@H]1C(=O)N(C2CCCCC2)C[C@@H]1C
3,i,4,-18,1.8,CNC[C@H]1Oc2c(NS(=O)(=O)c3c(C)noc3C)cccc2C(=O)N([C@H](C)CO)C[C@H]1C
3,i,7,3.4,-3.9,Cc1c(-c2ccccc2)n(O)c(-c2ccc(N(C)C)cc2)[n+]1[O-]
-5,i,-2,-0.4,-1.1,C[C@H](CO)N1C[C@H](C)[C@H](CN(C)C(=O)Nc2ccc3c(c2)OCO3)Oc2ccc(NS(=O)(=O)c3cccs3)cc2C1=O
-18,i,-10,2.1,-4.2,Cc1noc(C)c1S(=O)(=O)Nc1cccc2c1O[C@@H](CN(C)C(=O)Nc1cccc3ccccc13)[C@@H](C)CN([C@H](C)CO)C2=O
9,i,2,3.1,-1.0,C[C@@H]1CCCCO[C@H](CN(C)S(=O)(=O)c2cccs2)[C@H](C)CN([C@H](C)CO)C(=O)c2cc(NC(=O)CCCN(C)C)ccc2O1
2,i,-4,-0.6,1.6,C[C@H]1CN([C@@H](C)CO)C(=O)Cc2cc(NC(=O)C3CCCCC3)ccc2O[C@H]1CN(C)Cc1ccc2c(c1)OCO2
-27,i,-6,0.7,-4.7,CN1C(=O)c2cc(NC(=O)Cc3cccs3)ccc2OC[C@@H]2O[C@H](CC(=O)NCC3CCCCC3)CC[C@@H]21
9,i,2,-0.9,-2.9,CO[C@@H](CN(C)Cc1ccc2c(c1)OCO2)[C@H](C)CN(C(=O)Nc1ccc(F)cc1)[C@@H](C)CO
15,i,5,12,-4.6,C[C@H]1CN([C@@H](C)CO)C(=O)c2cc(-c3ccccc3)cnc2O[C@@H]1CN(C)C(=O)c1ccccc1F
-7,i,1,-2.7,-2.3,CCCC#Cc1ccc2c(c1)O[C@@H](CN(C)C)[C@H](C)CN([C@@H](C)CO)S2(=O)=O
-15,i,1,0.7,0.1,Cc1ccc(-c2ccc3c(c2)O[C@H](CN(C)Cc2cccc(C(=O)O)c2)[C@H](C)CN([C@@H](C)CO)S3(=O)=O)cc1
2,i,-2,-0.7,-1.9,Cc1ccc(S(=O)(=O)N(C)C[C@H]2Oc3ccc(NC(=O)CCCN(C)C)cc3C(=O)N([C@H](C)CO)C[C@H]2C)cc1
1,i,1,-0.6,-0.3,O=C(C[C@@H]1CC[C@H](NC(=O)c2ccncc2)[C@H](CO)O1)NCC1CCCCC1
-1,i,0,0.8,0.1,COc1cccc(C(=O)Nc2ccc3c(c2)OC[C@@H](C)N(CC2CC2)C[C@@H](C)[C@H](OC)CN(C)C3=O)c1

Assay outcomes as filed in PubChem BioAssay.
